A1 inhib = blocks A1 activity | MEF A1-2A-BIM cells, caspase-Glo luminescence, 3 h; percent of clofoctol signal, DMSO as zero | caspase activation, % (concentration not given with the values) | actives 0.51% (n = 21,000) | AID 2241;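 active = most replicate scores above 10, or exactly half above 10 with mean activity above 10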;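 note: effector caspase 3 and 7 activity cleaving a DEVD luciferin substrate; 50 nL library stock added to about 30 µL; numbers are from one replicate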
BJeLR viab HTS = BJeLR cell viability reduction; actives 0.64% (n = 30,000); BJeLR fibroblasts viability, CellTiterGlo ATP luminescence, 48 h; HRASV12, hTERT and SV40 LT/ST transformed; viability loss activity score, % (concentration not given with the values); in the data active = viability loss activity score above about 50%; about a fifth of its hits are not listed in these tables;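 note: higher score means fewer live cells and less ATP luminescence; stock transfer was 50 or 100 nL into about 30 µL; 0% = vehicle wells and 100% = a reference killing control; one replicate is shown; the record names a cut of 85%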
Numbers without * were called inactive; nt = not tested or not shown. Not all compounds are listed; the hit share may differ from the screen's.

Results follow in this order: A1 inhib, BJeLR viab HTS
COc1ccc(OCc2nnc3n2N=C(c2ccc(Br)cc2)CS3)cc1
 : nt, -1.4
CNC(=O)Cn1ncc2c(C)n(Cc3ccccc3)c(C)c2c1=O
 : 0.5, -3.0
COC(=O)c1sccc1-n1cc(C#N)c(=O)n(C)c1=O
 : -0.2, -3.1
C[C@H](CO)N1C[C@H](C)[C@@H](CN(C)C(=O)Nc2ccc3c(c2)OCO3)Oc2ccc(N(C)C)cc2C1=O
 : 1.5, 0.8
C[N+]1(C/C=C2/COCO2)CCCCC1
 : -0.8, 1.1
NC(=O)c1ccccc1NC(=O)c1cccc(Br)c1
 : -7.6, 4.8
FC(F)(F)COc1nc(N2CCCCC2)nc(N(c2ccccc2)c2ccccc2)n1
 : -0.4, -10
COc1ccc(CN(C)C[C@@H]2Oc3c(NC(=O)C4CC4)cccc3C(=O)N([C@H](C)CO)C[C@H]2C)cc1
 : nt, -7.0
C[C@H](CO)N1C[C@H](C)[C@@H](CN(C)S(=O)(=O)c2ccccc2)Oc2ccc(NC(=O)Nc3ccc4c(c3)OCO4)cc2C1=O
 : 0.4, -3.0
C[C@@H]1CN([C@H](C)CO)C(=O)c2cccc(NC(=O)C3CCCCC3)c2O[C@@H]1CN(C)S(=O)(=O)c1ccc(Cl)cc1
 : nt, 2.1
CCOC(=O)c1cc(C(=O)OCC)n(C)n1
 : 0.8, -1.4
O/N=C(/C(=N/O)c1ccccc1)c1ccccc1
 : -0.2, 4.0
CCC(NC(=O)Nc1ccccc1C(=O)OC)(C(F)(F)F)C(F)(F)F
 : 0.1, -2.2
Nc1c2cnc(N3CCCC3)nc2nc(=O)n1-c1ccc(Cl)cc1
 : 0.0, 2.2
C[C@@H]1CN([C@@H](C)CO)C(=O)c2cc(NC(=O)Nc3ccc(C(F)(F)F)cc3)ccc2O[C@@H]1CN(C)S(=O)(=O)c1ccc(Cl)cc1
 : 0.2, 2.4
CCOC(=O)C1=C(SCc2ccccc2)NC(=O)C(C#N)C12CCCCC2 (stereo not drawn)
 : -0.8, 4.4
C[C@H](CO)N1C[C@H](C)[C@@H](CN(C)S(=O)(=O)c2ccccc2)Oc2c(NC(=O)Nc3ccc(F)cc3)cccc2C1=O
 : nt, -4.9
CCC(NC(C)C)C(O)c1ccc(O)c(O)c1 (stereo not drawn)
 : -0.4, -4.4
O=c1c2cnn(-c3ccccc3)c2ncn1C/C=C/c1ccccc1
 : -0.1, -0.7
CCn1c(=NC(=O)c2ccc(S(=O)(=O)N3CCCC3)cc2)sc2c3ccccc3ccc21
 : -0.8, 5.8

Further records follow.
Results follow in this order: A1 inhib, BJeLR viab HTS
O=C(Nc1cnn(Cc2ccc(F)cc2)c1)c1cnccn1
 : nt, -1.7
C[C@@H]1CN([C@H](C)CO)C(=O)c2cccc(NC(=O)c3ccc(-c4nccs4)cc3)c2O[C@H]1CN(C)CC1CC1
 : nt, -2.1
COc1ccc(S(=O)(=O)N(C)C[C@H]2Oc3c(NC(=O)c4ccncc4)cccc3C(=O)N([C@H](C)CO)C[C@@H]2C)cc1
 : nt, -7.2
CC(C)CN(CC(C)C)C(=O)c1cc2ccccc2oc1=O
 : 0.2, -2.3
COc1ccc(S(=O)(=O)N(C)C[C@H]2Oc3ccc(NC(=O)Nc4c(C)noc4C)cc3C(=O)N([C@@H](C)CO)C[C@@H]2C)cc1
 : -0.1, -2.6
Fc1ccccc1OCCSc1nc2ccccc2s1
 : -2.4, -1.0
C[C@@H]1CN([C@H](C)CO)C(=O)c2cc(NC(=O)Nc3cccc4ccccc34)ccc2O[C@@H]1CN(C)C(=O)Nc1cccc2ccccc12
 : -0.6, 1.5
O=S(=O)(CCN1CCN(C(c2ccccc2)c2ccccc2)CC1)c1ccc(Cl)cc1
 : -0.9, -1.0
CC1=C(C(=O)OC(C)C)C(C2CC=CCC2)NC(=O)N1 (stereo not drawn)
 : 0.7, 0.5
C[C@@H]1CN([C@H](C)CO)C(=O)c2cc(NC(=O)Nc3ccc(C(F)(F)F)cc3)ccc2O[C@H]1CN(C)C(=O)Nc1ccccc1
 : -0.8, 1.9
Cc1noc(C)c1NC(=O)Nc1cccc2c1O[C@@H](CN(C)Cc1ccncc1)[C@H](C)CN([C@@H](C)CO)C2=O
 : nt, 3.2
O=C(CN1C(=O)C2C3C=CC(C3)C2C1=O)Nc1cccc(F)c1 (stereo not drawn)
 : nt, 0.9
COc1cccc(C2=Nc3cccc4cccc(c34)N2)c1
 : -1.5, 5.4
CC(=O)O[C@@H]1[C@@H](OC(=O)/C=C/c2ccccc2)[C@H](C)O[C@@H](O[C@H]2[C@@H]3C=CO[C@@H](O[C@@H]4O[C@H](CO)[C@@H](O)[C@H](O)[C@H]4O)[C@@H]3[C@@]3(CO)O[C@@H]23)[C@@H]1OC(C)=O
 : -1.2, -10
C[C@@H]1CN([C@H](C)CO)C(=O)c2cccc(NC(=O)NC3CCCCC3)c2O[C@@H]1CN(C)Cc1ccc(C(=O)O)cc1
 : nt, -2.0
C[C@H]1CN([C@@H](C)CO)C(=O)c2cc(NS(=O)(=O)c3cn(C)cn3)ccc2O[C@@H]1CN(C)C(=O)Nc1ccc(F)cc1
 : 0.8, -7.4
CNC[C@@H]1Oc2c(NC(=O)c3cc(C)nn3C)cccc2C(=O)N([C@@H](C)CO)C[C@@H]1C
 : nt, -3.4
O=C1c2ccccc2C(Nc2ccc(S(=O)(=O)N3CCCCC3)cc2)N1c1ccccn1 (stereo not drawn)
 : nt, -4.6
C[C@@H]1CN([C@H](C)CO)C(=O)c2cc(NS(=O)(=O)c3ccccc3)ccc2O[C@H]1CN(C)S(=O)(=O)c1cccs1
 : 0.5, 6.2
NC(=S)N1N=C(c2ccccc2)CC1c1ccccc1 (stereo not drawn)
 : 0.4, 3.9

Part of the list above, field by field:
> Cc1noc(C)c1NC(=O)Nc1cccc2c1O[C@@H](CN(C)Cc1ccncc1)[C@H](C)CN([C@@H](C)CO)C2=O
  A1 inhib: nt | BJeLR viab HTS: 3.2
> O=C(CN1C(=O)C2C3C=CC(C3)C2C1=O)Nc1cccc(F)c1 (stereo not drawn)
  A1 inhib: nt | BJeLR viab HTS: 0.9
> COc1cccc(C2=Nc3cccc4cccc(c34)N2)c1
  A1 inhib: -1.5 | BJeLR viab HTS: 5.4
> CC(=O)O[C@@H]1[C@@H](OC(=O)/C=C/c2ccccc2)[C@H](C)O[C@@H](O[C@H]2[C@@H]3C=CO[C@@H](O[C@@H]4O[C@H](CO)[C@@H](O)[C@H](O)[C@H]4O)[C@@H]3[C@@]3(CO)O[C@@H]23)[C@@H]1OC(C)=O
  A1 inhib: -1.2 | BJeLR viab HTS: -10

New compounds follow:
Results follow in this order: A1 inhib, BJeLR viab HTS
O=C(NCc1ccccc1)c1ccc2c(=O)n3c(nc2c1)CCCCC3
 : nt, -3.4
C[C@@H]1CN([C@H](C)CO)C(=O)c2cc(NC(=O)Nc3ccccc3)ccc2O[C@@H]1CN(C)Cc1ccc(C(F)(F)F)cc1
 : -0.7, 0.4
O=C(CSc1nccc(-c2cccs2)n1)N1CCOCC1
 : nt, 1.9
O=C(CSc1ccccn1)Nc1cc(C(=O)O)cc(C(=O)O)c1
 : -0.6, 8.6
Fc1ccccc1-c1n[nH]c(=S)n1CCCN1CCOCC1
 : nt, -2.7
Cc1noc(C)c1S(=O)(=O)Nc1ccc2c(c1)C(=O)N([C@@H](C)CO)C[C@@H](C)[C@H](CN(C)S(=O)(=O)c1ccc(F)cc1)O2
 : -0.7, -7.2
CCn1cc(C(=O)N2CCCCC2)c2cc(OC)c(OC)cc2c1=O
 : nt, -2.5
CC(=O)N1CCN(C(=S)c2ccc(-c3ccc(C)cc3)o2)CC1
 : nt, 3.3
CC1(C)CC(n2c(NCCO)nc3c(c2=O)C2(CCCCC2)Cc2ccccc2-3)CCO1 (stereo not drawn)
 : 0.8, -2.5
C[C@@H]1CN([C@H](C)CO)C(=O)c2cccc(NC(=O)Nc3ccc(F)cc3)c2O[C@H]1CN(C)Cc1ccc(C(F)(F)F)cc1
 : nt, 1.1
O=C(Cn1ccc2ccccc2c1=O)NCCC(=O)NC1CC1
 : nt, 2.4
CCOc1ccccc1N1C(=O)C2C(c3ccccc3)C=CC(c3ccccc3)C2C1=O (stereo not drawn)
 : nt, -0.4
COc1ccc(S(=O)(=O)N(C)C[C@@H]2Oc3ccc(NS(=O)(=O)c4ccc(F)cc4)cc3C(=O)N([C@H](C)CO)C[C@H]2C)cc1
 : 0.3, 2.9
COc1ccc(NC(=O)Nc2ccc3c(c2)C(=O)N([C@H](C)CO)C[C@H](C)[C@@H](CN(C)S(=O)(=O)c2ccc(OC)cc2)O3)cc1
 : 0.5, 0.9
COc1ccc2c(Sc3ccccc3)c(C(=O)NC3CCCC3)[nH]c2c1
 : -1.2, -2.6
O=C(Cn1nc(-c2ccc(Cl)cc2)c2ccccc2c1=O)Nc1cccc2ccccc12
 : -0.1, 1.5
C[C@@H]1CN([C@@H](C)CO)C(=O)c2cccc(NC(=O)Nc3ccccc3)c2O[C@H]1CN(C)C
 : nt, -2.3
O=C(c1ccc(Br)cc1)N1Cc2ccccc2NC1=S
 : 0.0, 15
C[C@H](CO)N1C[C@H](C)[C@H](CN(C)S(=O)(=O)c2ccccc2)Oc2ccc(NC(=O)Nc3cccc4ccccc34)cc2C1=O
 : -0.3, -2.1
CCOC(=O)c1c2c(n3ccccc13)C(=O)c1ccccc1C2=O
 : 1.8, 3.4

The results go on.
| canonical_smiles | A1 inhib | BJeLR viab HTS |
| --- | --- | --- |
| C[C@H]1CN([C@@H](C)CO)C(=O)c2cc(NC(=O)C3CC3)ccc2O[C@@H]1CN(C)Cc1ccccc1 | -1.0 | 4.3 |
| COc1ccc(S(=O)(=O)N(C)C[C@H]2Oc3ccc(NC(=O)Nc4cccc5ccccc45)cc3C(=O)N([C@H](C)CO)C[C@H]2C)cc1 | -0.1 | -2.0 |
| C[C@@H]1CN([C@@H](C)CO)C(=O)c2cc(NC(=O)Cc3cn(C)c4ccccc34)ccc2O[C@@H]1CN(C)C(=O)Nc1ccc2c(c1)OCO2 | -0.1 | -9.6 |
| Cc1ccc(S(=O)(=O)N(C)C[C@H]2Oc3c(cccc3N(C)C)C(=O)N([C@@H](C)CO)C[C@@H]2C)cc1 | nt | 1.9 |
| C[C@@H]1CN([C@H](C)CO)C(=O)c2cccc(NS(=O)(=O)c3ccccc3)c2O[C@H]1CN(C)C(=O)Nc1ccc(C(F)(F)F)cc1 | nt | -1.2 |
| CCCC(=O)Nc1nn2c(-c3ccc(OC)cc3)nnc2s1 | nt | 10 |
| O=C(CN1C(=O)/C(=C/c2ccccc2F)Oc2ccccc21)N1CCCC1 | nt | -0.1 |
| COc1ccc(S(=O)(=O)Nc2ccc3c(c2)C(=O)N([C@H](C)CO)C[C@@H](C)[C@@H](CN(C)S(=O)(=O)c2cn(C)cn2)O3)cc1 | 0.1 | -0.9 |
| Cc1ccc(C(=O)CC(=O)C(=O)Nc2ccc(S(=O)(=O)N3CCOCC3)cc2)cc1C | nt | -4.0 |
| C[C@H]1CN([C@@H](C)CO)C(=O)c2cc(NS(=O)(=O)c3cn(C)cn3)ccc2O[C@@H]1CN(C)Cc1ccc(-c2ccccc2)cc1 | -0.1 | 0.6 |

(more compounds)
| canonical_smiles | A1 inhib | BJeLR viab HTS |
| --- | --- | --- |
| COc1ccc(C2Nn3c(C)nnc3SC2C(=O)NCc2ccco2)cc1Cl (stereo not drawn) | -0.5 | -4.6 |
| Cc1ccc(C)c(NC(=O)C2=CCN(S(=O)(=O)c3ccc(F)cc3)CC2)c1 | 0.5 | -1.7 |
| Cc1ccc(S(=O)(=O)N(C)C[C@@H]2Oc3c(NC(=O)c4cc(C)nn4C)cccc3C(=O)N([C@H](C)CO)C[C@H]2C)cc1 | nt | -2.6 |
| C[C@@H]1CN([C@@H](C)CO)C(=O)c2cccc(NS(=O)(=O)c3cn(C)cn3)c2O[C@H]1CN(C)C(=O)Nc1ccc(F)cc1 | nt | -4.4 |
| COC(=O)C1=CN(c2cccc(C(F)(F)F)c2)C=C(C(=O)OC)C1c1ccc(F)cc1 | 0.0 | 2.7 |
| Cc1ccc(-c2cn3c(n2)sc2cc(C(=O)O)ccc23)c(C)c1 | -1.7 | 0.2 |
| Cc1noc(C)c1NC(=O)N(C)C[C@H]1Oc2c(NC(=O)C3CC3)cccc2C(=O)N([C@@H](C)CO)C[C@@H]1C | nt | -4.1 |
| Cc1ccccc1NC1=C(C(=O)c2ccccc2)N(C)S(=O)(=O)c2ccccc21 | 0.1 | 4.3 |
| Cc1ccc(NC(=O)CCCn2c(=S)[nH]c3ccsc3c2=O)cc1C | 0.0 | 0.5 |
| COC(=O)Cc1[nH]nc2c1C1(CCOC1C)C(C#N)=C(N)O2 (stereo not drawn) | 0.0 | 15 |

Other entries.
| canonical_smiles | A1 inhib | BJeLR viab HTS |
| --- | --- | --- |
| CCc1ccc(-c2nc(CSCC(=O)NCc3ccccc3)c(C)o2)cc1 | nt | -2.1 |
| O=C(COc1ccc2c(=O)c(-c3ccccc3)coc2c1)OC1CCCCC1 | -2.4 | -1.8 |
| O=C(O)CNc1c(F)c(F)nc(F)c1F | 1.5 | 0.4 |
| C[C@H]1CN([C@@H](C)CO)C(=O)c2cccc(NC(=O)C3CCOCC3)c2O[C@@H]1CN(C)Cc1ccc(C(=O)O)cc1 | nt | 0.3 |
| COc1ccc(NC(=O)Nc2ccc3c(c2)C(=O)N([C@@H](C)CO)C[C@H](C)[C@H](CN(C)S(=O)(=O)c2ccc(Cl)cc2)O3)cc1 | 0.6 | -1.5 |
| C[C@H]1CN([C@@H](C)CO)C(=O)c2cc(NC(=O)Nc3ccc(C(F)(F)F)cc3)ccc2O[C@H]1CN(C)S(=O)(=O)c1ccccc1 | 0.1 | 5.9 |
| Cn1c(C(C#N)C(=O)c2ccccc2I)nc2ccccc21 (stereo not drawn) | -1.0 | -0.8 |
| O=C(COc1ccc(Cl)cc1)Nc1ccc2nc3n(c(=O)c2c1)CCCCC3 | 0.5 | 2.5 |

Source: PubChem
